Source: PubChem
PrP UTR inh – inhibition of PrP 5' UTR reporter expression. cell-based PrP 5' UTR mRNA reporter, plate reader. AID 488862. 340,000 compounds, 0.35% hits. inhibition, % (test concentration not listed);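 active = every replicate at 50% or more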;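 also: 0 = median of the neutral control wells; tested in H4 reporter cells; numbers are from one replicate; inactives centre near -14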
BJeLR lethal – kills HRASV12-expressing BJeLR cells; 300,000 compounds, 0.17% hits; inhibition, % (test concentration not listed); AID 1554; BJeLR (HRASV12) viability, CellTiter-Glo ATP luminescence, 48 h; reference of the scale not given here;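 active = replicate mean above 50%; inconclusive = above 50% but judged a plate artefact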;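 also: 50 nL library stock added to about 25 µL; numbers are from one replicate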
Sa RN4220 lethal – S. aureus RN4220 growth inhibition. OD600, 16 h. inhibition, % (test concentration not listed). 330,000 compounds, 0.33% hits. AID 1259311;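 active = z-score of -3 or lower and OD600 up to 0.18 on both plates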;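 also: plate controls were untreated cells for no effect and reference antibiotic for full effect; stock transfer was 100 nL into about 80 µL; one replicate is shown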
ugtP null kill – growth inhibition of S. aureus ugtP deletion strain; S. aureus RN4220 ugtP deletion, OD600 growth, 16 h; some inactives read as strong as hits; growth inhibition, % (test concentration not listed); 330,000 compounds, 0.54% hits; AID 1259309;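 active = z-score under -3 and OD600 up to 0.15 on both plates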;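 also: plate controls were untreated wells for no effect and antibiotic for full effect; wells of about 80 µL received 100 nL stock; the first replicate is given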
Mtb hypoxia inh – reduces hypoxia-regulated biosensor signal in M. tuberculosis; M. tuberculosis hypoxia-regulated fluorescent reporter, fluorescence; fluorescence inhibition, % (concentration not given with the values); 300,000 compounds, 0.1% hits; AID 1159583;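 active = 35 to 45% if threefold the growth effect, above 45% if 1.5-fold the growth effect; inactive = the rest, general growth blockers included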;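 also: wells of about 50 µL received 100 nL stock; 0% = vehicle wells and 100% = reference inhibitor wells; whole bacteria with a GFP reporter of the hypoxia response; strong numbers were not always called active; many hits fall short of the cut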
Autofluor counter – flagged as autofluorescent in microsphere protease counterscreen. compound autofluorescence counterscreen, microsphere flow cytometry; stronger effect = higher value. fluorescence intensity (no concentration beside the values). 360,000 compounds, 3.1% hits. AID 624483;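 active = at least 3 SD above the mean of all compounds, about 16000 in these data; inconclusive = too few beads counted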;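 also: 100 nL of 1 mM stock went into each well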
Mtb hypoxia inh growth – recorded beside Mtb hypoxia inh, whose call it bears; growth inhibition, %; measured here: M. tuberculosis growth (absorbance);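 0% = vehicle and 100% = reference antibiotic; read after six days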
* = called active by the depositor; ? = inconclusive; . = no result given.

SMILES	PrP UTR inh	BJeLR lethal	Sa RN4220 lethal	ugtP null kill	Mtb hypoxia inh	Mtb hypoxia inh growth	Autofluor counter
Cc1ccc(S(=O)(=O)N2CCCN(S(=O)(=O)C3CCS(=O)(=O)C3)CC2)cc1 (stereo unspecified)	-31	1	3.5	-2	5	7	11013
Cc1ccsc1C(=O)OCC(=O)Nc1cccc(S(=O)(=O)NC2=NCCCCC2)c1	-46	5	.	.	.	.	4232
O=C(N/C(=C\c1ccccc1)C(=O)N1CCOCC1)c1ccc(Br)o1	4	-5	1.0	8	6	-9	3120
Cc1ccc(S(=O)(=O)N/N=C\c2ccc3c(c2)OCO3)cc1C	-4	-1	.	.	.	.	5572
C=C(C)CN1CCN(c2ccc(N3C(=O)CCCC3=O)cc2[N+](=O)[O-])CC1	-10	-7	5.6	5	10	11	4553
C=CCn1c(Cc2cccs2)nnc1SCC(=O)c1ccc(F)cc1	-22	9	13	-18	6	7	9208
COCC(C)NC(=O)c1cc(OC)cc(OC)c1 (stereo unspecified)	-4	2	14	8	-7	-4	4418
CC(C)c1ccccc1OCC(O)CN(CC(O)COc1cccc2ccccc12)C(C)C (stereo unspecified)	-17	-15	1.1	-27	-4	7	5776
COCCCN1C(=O)C(=O)C(=C(O)c2ccc(OC(C)C)c(C)c2)C1c1ccncc1 (stereo unspecified)	.	.	3.8	3	7	-8	.
C=CCN(Cc1cn(C)nc1-c1cccc(Cl)c1)C1CCS(=O)(=O)C1 (stereo unspecified)	-2	.	-2.9	6	16	6	5434
O=C(COC(=O)CC(c1ccccc1)c1ccccc1)NCc1ccc(Cl)cc1	-25	-8	-12	11	2	-5	9127
COc1ccc(S(=O)(=O)N(C)C)cc1NC(=O)c1ccc2c(c1)OCCO2	-5	.	-1.1	4	8	0	.
Cc1ccccc1C(=O)Nc1cccc(C(=O)N/N=C/c2ccc3c(c2)OCO3)c1	-29	-11	.	.	.	.	3592
C=CCSc1nnnn1-c1ccc(OC)cc1	-24	2	8.6	0	4	2	?
N#Cc1c(SCC(=O)Nc2ccc(C(F)(F)F)cc2)sc2c(O)cc(=O)[nH]c12	-32	-10	1.5	2	14	9	5106
O=C(CC(=O)NC1CCCCC1)N/N=C/c1ccccc1[N+](=O)[O-]	-17	0	.	.	.	.	5248
Cc1c(CN2CCN(C)C(CCO)C2)[nH]c2c(Cl)cccc12 (stereo unspecified)	-8	-4	3.2	2	7	10	3683
CC(C)(C)NC(=O)CN(C(=O)C(=O)Nc1ccc2c(c1)OCCO2)C(C)(C)C	-20	-5	6.8	4	8	6	3256
Cc1cc2c(NS(=O)(=O)c3ccc(F)cc3)cccc2nn1	-19	-6	2.4	2	-8	2	6251
O=C(COC(=O)/C=C/c1ccc(Cl)cc1Cl)NCCC1=CCCCC1	-77	2	.	.	.	.	1933
CCCCn1c(N)c(N(CCC(C)C)C(=O)c2cc(-c3ccco3)nc3ccccc23)c(=O)[nH]c1=O	-19	-11	.	.	.	.	6377
Cc1ccccc1-n1ncc2c1CC(C)(C)CC2NC(=O)C1=CC(=O)CC(C)(C)O1 (stereo unspecified)	-14	-1	-2.1	9	6	8	5800
CCC1(C)Nc2ccccc2C(=O)N1O (stereo unspecified)	-19	-4	5.1	7	16	7	3248
CC(=O)c1ccc(N(C(=O)CNC(=O)c2ccco2)C(C(=O)NC2CCCC2)c2ccc(C)o2)cc1 (stereo unspecified)	-12	-11	3.8	5	2	0	6003
COc1cc(S(=O)(=O)Nc2ccccc2C(=O)N2CCCCC2)ccc1NC(C)=O	.	.	0.1	2	10	7	?
COC(=O)c1ccc(C=NNS(=O)(=O)c2cc(C)ccc2C)cc1	.	.	2.1	-1	1	1	.
Cc1cccc(NC(=O)c2ccc(C(=O)c3ccccc3)o2)c1	-44	6	0.1	-6	-3	1	3589
CCC[C@@H](CN[C@@H](CNC)C(C)C)NCCCCc1ccccc1	-9	6	-11	-6	4	7	4097
CN(Cc1ccccc1)C(=O)c1cccc(NC(=O)Cc2ccc(NC(=O)C3CCN(C(=O)C4CC4)CC3)cc2)c1	-25	.	0.7	1	-4	11	3561
COc1cccc(OCCN2CCN(c3ncnc4c3cnn4-c3ccccc3)CC2)c1	3	-7	5.7	8	0	1	16922*
Cc1noc(C)c1COc1ccc(C(=O)OCC(=O)Nc2ccc3c(c2)OCO3)cc1	-14	2	-5.9	11	8	8	3198
COc1ccc(OC)c(C2=Nn3c(nnc3-c3cc(OC)c(OC)c(OC)c3)SC2)c1	-22	3	7.5	3	1	3	11393
Cc1cccc([C@@H]2[C@@H]3C(=O)N(Cc4ccccc4)C(=O)[C@@H]3[C@]3(Cc4ccc(Cl)cc4)C(=O)N(c4cccc(Br)c4)C(=O)N23)c1	-20	-8	.	.	.	.	3915
CCN(CC)S(=O)(=O)c1ccc(Cl)c(C(=O)Nc2cc(C)nn2-c2ccccc2)c1	-10	10	3.1	1	12	7	1967
CCc1sc(N(C(=O)Cc2ccccc2)c2cccc(F)c2)nc1-c1ccc(C)cc1	-5	-4	-11	56	4	8	3376
O=C(C1CCC(CNc2nc(=S)[nH]c3ccccc23)CC1)N1CCN(c2ccc(F)cc2)CC1 (stereo unspecified)	-20	-2	6.8	16	-14	2	3244
CC1CCN(Cc2c(O)ccc3c(=O)c(-c4nc5ccccc5s4)c(N)oc23)CC1	-27	9	-4.5	4	17	8	2127
Cn1nc(C(=O)NCCCN2CCCCC2)c2c1-c1ccccc1SC2	8	11	-2.4	10	4	-1	5677
CC(=O)OCC(CCn1cnc2cnc(N)nc21)COC(C)=O	.	-2	7.1	2	-3	2	.
CC(=O)Nc1ccc2[nH]c(C)cc(=O)c2c1	-13	-2	-11	7	6	8	3182
CN(C)C(CNC(=O)Cc1ccc(Br)cc1)c1ccccc1 (stereo unspecified)	-24	-6	0.8	3	16	2	3123
CCOC(=O)N1CCC(NS(=O)(=O)c2ccc3c(c2)oc(=O)n3C)CC1	-31	-6	6.8	1	6	3	16773*
CN1C(=O)/C(=C\N2CCc3ccccc32)C(=O)NC1=S	-6	-2	3.3	2	-9	0	2357
COc1ccc(CCN(Cc2cc3cc(C)cc(C)c3nc2Cl)C(=O)C2CC2)cc1	-4	-3	-3.2	11	0	-6	9137
COC(=O)c1cccc(CSc2nnc(-c3ccco3)n2-c2ccccc2)c1	-17	-7	11	-2	-8	-4	2868
CCCCN(CCCC)Cc1cc2ccccc2c2c1COC2	-4	-4	-3.4	60	.	.	4894
O=[N+]([O-])c1cccc(S(=O)(=O)NCCc2ccccc2)c1	-20	-3	6.0	5	0	13	4100
CCOc1ccc(N(C)C(=O)CCc2nnc3ccc(N4CCOCC4)nn23)cc1	-7	-4	-2.8	-3	-7	-24	4506
CN(C(=O)c1cccc(NC(=O)Cc2ccc([N+](=O)[O-])cc2)c1)C1CC1	-5	.	4.5	1	5	10	2955
O=C(CN(Cc1ccc(F)cc1)C(=O)CNS(=O)(=O)c1ccc(F)cc1)NCC1CCCO1 (stereo unspecified)	-39	-21	2.4	10	13	3	3516

Continued; it opens with the 3 that closed the last part.
SMILES	PrP UTR inh	BJeLR lethal	Sa RN4220 lethal	ugtP null kill	Mtb hypoxia inh	Mtb hypoxia inh growth	Autofluor counter
CCOc1ccc(N(C)C(=O)CCc2nnc3ccc(N4CCOCC4)nn23)cc1	-7	-4	-2.8	-3	-7	-24	4506
CN(C(=O)c1cccc(NC(=O)Cc2ccc([N+](=O)[O-])cc2)c1)C1CC1	-5	.	4.5	1	5	10	2955
O=C(CN(Cc1ccc(F)cc1)C(=O)CNS(=O)(=O)c1ccc(F)cc1)NCC1CCCO1 (stereo unspecified)	-39	-21	2.4	10	13	3	3516
Cc1cc(-c2onc(C)c2C(=O)NN=Cc2ccccc2)no1	.	.	5.4	7	4	14	.
O=S(=O)(c1cccc(NC(=S)N2CCN(c3ccccc3F)CC2)c1)C(F)F	-5	-4	5.0	9	2	12	2606
COc1cc(/C=N/NC(=O)c2ccccn2)ccc1OC(=O)c1ccc(Br)cc1	-45	6	.	.	.	.	5557
O=C(CCCOc1ccccc1)OCn1nnc2ccccc2c1=O	-1	-4	4.4	15	0	2	4121
CN(C(=O)c1ccc2c(=O)n3c(nc2c1)CCCCC3)c1cccc(Cl)c1	-22	-3	9.4	5	-1	5	3617
Cn1c(=O)c2c(ncn2Cc2ccccc2)n(C)c1=O	8	2	0.3	-4	-1	1	6264
Cc1ccc(CN2CCC(=O)N2)cc1	-16	5	0.6	6	13	8	3206
O=C(COc1ccccc1F)Nc1ccc(S(=O)(=O)Nc2nccs2)cc1	-10	-2	-0.9	-1	8	18	3041
C/C(C=NNC(=O)c1cc(-c2ccc(C)o2)[nH]n1)=C\c1ccccc1	.	.	1.6	-1	12	-3	.
O=C(c1cccc(NS(=O)(=O)c2ccccc2)c1)N1CCCC1	-15	1	0.8	1	-1	-4	4588
CN1CCN(CCCCOc2ccccc2C=O)CC1	-8	2	.	.	.	.	2760
COc1ccccc1-c1nc(C#N)c(N2CCN(C(=O)c3ccco3)CC2)o1	-20	1	5.1	5	3	2	5153
CCOc1ccccc1NC(=O)COC(=O)c1ccccc1SCC(=O)N1CCCC1	-6	2	-1.5	-4	0	-7	?
CC(=O)Nc1ccc(-c2csc(NNC(=O)c3ccccc3)n2)cc1	-11	1	2.6	-2	15	2	4239
COC(=O)c1ccc(C)c(NC(=O)CCNC(=O)c2ccc([N+](=O)[O-])cc2)c1	-25	4	2.1	2	4	5	10484
COc1ccc(Nc2c3c(nc4ccccc24)CCC3)cc1	-1	14	7.5	2	-1	1	3066
COc1ccc(CCC(C)NC2CCCCCCC2)cc1 (stereo unspecified)	-19	8	-0.4	0	4	-1	.
Cc1ccc(SCCN2CCC(C(C)(C)C)CCC2=O)cc1 (stereo unspecified)	-14	-12	4.4	-31	17	9	3096
COC(=O)c1ccc(COc2cc(C)cc3oc(=O)c4c(c23)CCCC4)o1	-16	-6	-2.0	-1	-2	-3	13536
Cc1nc2ccc(NC(=O)c3ccc([N+](=O)[O-])cc3[N+](=O)[O-])cc2s1	-25	-8	.	.	.	.	4274
N#Cc1c(/N=C/N2CCOCC2)sc2c1CCCCC2	-74	16	.	.	.	.	4980
Cc1ccc(CC2SC(N)=NC2=O)cc1 (stereo unspecified)	0	-5	2.5	6	2	-10	4595
CCOC(=O)Cc1csc(NC(=O)Cn2cnc3c2c(=O)n(C)c(=O)n3C)n1	-3	0	7.3	4	0	5	4946
O=C(Nc1nc2c(s1)CN(Cc1ccccc1)CC2)C1CCCC1	-12	4	-2.5	0	-9	-4	6287
O=C(COC(=O)Cn1[nH]c(=O)c2ccccc2c1=O)NNC(=O)c1ccccc1	-4	.	2.9	5	5	0	.
O=C1C(c2ccccc2)c2ccccc2N1Cc1ccccc1 (stereo unspecified)	-7	.	-2.8	2	8	1	3245
COc1ccc(C(C)=NNc2ccc(F)cc2F)c(O)c1	.	.	-0.4	7	12	2	.
COc1ccc(CCN2CC(C(=O)N(C)CC(=O)Nc3ccc(F)c(F)c3F)CC2=O)cc1OC (stereo unspecified)	-8	.	1.7	5	15	9	3595
Oc1ccc(C=NNc2nn3cnnc3c3ccccc23)cc1	.	.	3.0	0	8	-7	.
Cc1ccc(C)c2[nH]c(=O)c(CCNC(=O)c3ccc(S(=O)(=O)N(C)C)cc3)cc12	-6	13	6.1	-1	-4	1	5849
O=C(CCc1nnc2ccc(NCc3ccco3)nn12)Nc1ccccc1F	-22	-3	-1.3	-2	-5	2	5574
CC(CCc1ccccc1)NC(=O)c1cccnc1 (stereo unspecified)	-8	6	3.7	-8	17	18	3926
CC(C)CC(COCc1cccc(C(F)(F)F)c1)N1CCN(C(=O)c2cccc(C(F)(F)F)c2)CCC1=O (stereo unspecified)	-14	0	3.5	-3	-3	9	3640
C/C(=N\NC(=O)C1CC1c1ccccc1)c1ccc(C)s1 (stereo unspecified)	-10	1	.	.	.	.	3869

Some entries already given, reduced to Autofluor counter, Sa RN4220 lethal and BJeLR lethal:
molecule | Autofluor counter | Sa RN4220 lethal | BJeLR lethal
CC(C)CC(COCc1cccc(C(F)(F)F)c1)N1CCN(C(=O)c2cccc(C(F)(F)F)c2)CCC1=O (stereo unspecified) | 3640 | 3.5 | 0
C/C(=N\NC(=O)C1CC1c1ccccc1)c1ccc(C)s1 (stereo unspecified) | 3869 | . | 1
